# CapD inh = inhibitors of Bacillus anthracis CapD enzyme; purified CapD enzyme, fluorescence intensity read-out; hits give low values; some hits fall short of the stated cut; z-score (test concentration not listed); 140,000 tested, 0.23% active; AID 492967;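 active means z-score under -4 in either of two replicates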;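 further: stock transfer was 100 nL into about 40 µL; score is relative to mean and spread of the plate; one replicate is shown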
# AID504770 = E. coli YBA685 growth inhibition, screen for V. cholerae RctB inhibitors; E. coli YBA685 rctB-dependent plasmid, OD600 growth, 3 h; hits give low values; z-score (concentration not given with the values); 130,000 tested, 0.27% active; AID 504770;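 active means z-score under -2 on both plates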;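 further: wells of about 30 µL received 100 nL stock; score is relative to mean and SD of the test wells; the first replicate is given; strong numbers were not always called active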
# Starred values were filed as active, the others as inactive; nt = not tested or not shown. Only part of the results is shown, so the mix of outcomes need not match the whole.
smiles	CapD inh	AID504770
Cc1nnc2n1N=CC=C(c1ccccc1)S2	-2.3	-0.05
Cc1nnc(SCC(=O)c2cc(C)n(CCC(C)C)c2C)n(N)c1=O	nt	-2.1
CSc1nc2ccc(N=Cc3ccc(Sc4nnnn4-c4ccccc4)o3)cc2s1	-2.2	-0.6
CC1=NN(c2ccccc2)C(=O)C1/C=C1\C(=O)NC(=S)N(c2ccc(F)cc2)C1=O (stereo not given)	-0.92	nt
CCCc1nc2ccccc2c(C(=O)OCC(N)=O)c1CC	0.5	0.6
O=C(CC1SC(=Nc2ccccc2)N(CCCCO)C1=O)NCc1ccccc1 (stereo not given)	0.27	1.6
CCN(CC)Cc1cc(C(=O)O)co1	nt	0.85
Oc1c(Cl)cc(Cl)cc1/C=N/NC(=S)NC1CC2C=CC1C2 (stereo not given)	-1.4	nt
COc1cccc(N2C(=O)C(N3C(=O)c4cccc([N+](=O)[O-])c4C3=O)C2c2cccs2)c1 (stereo not given)	-0.005	nt
CCOC(=O)N1CCC(c2cc(=O)n(-c3ccccc3)[nH]2)CC1	0.48	0.65
CCOC(=O)CCC(NS(=O)(=O)c1ccc(Br)cc1)C(=O)OCC (stereo not given)	0.43	nt
NC(=O)COC(=O)c1cc(-c2cccs2)nc2ccccc12	nt	-0.45
CCCCN1N=C(C)CC1=O	0.11	0.4
O=C(N1CCc2ccc(S(=O)(=O)N3CCN(CCO)CC3)cc2C1)C(F)(F)F	-0.23	nt
C=CCC(NCc1ccco1)c1ccc(N(C)C)cc1 (stereo not given)	2.7	-1.1
Cc1ccc(-n2c(C)csc2=N)cc1	-0.81	-0.7
CS(=O)(=O)c1ccc(S(=O)(=O)N2CCN(c3cccc(Cl)c3)CC2)cc1	-0.3	nt
CCN(CC)c1nc(C)nc2sc(C(=O)Nc3cccc(Cl)c3)c(C)c12	0.16	nt
COC(=O)c1ccc(OCC(=O)/C(C#N)=C(\C)N)cc1	nt	-0.55
O=C(O)c1cc2ccccc2[nH]c1=O	nt	-0.9
CN(C)c1nc(Cl)nc(NCCCC(=O)O)n1	nt	-1.1
c1ccc2c3nnc4n(c-3nc2c1)CCCS4	-1.2	-1.4
O=C(Nc1c(-c2ccccc2)nc2ccccn12)c1ccc([N+](=O)[O-])cc1	-0.32	nt
Cc1ccc2cc(NC(=O)C3CC(=O)N(Cc4ccco4)C3)ccc2n1 (stereo not given)	2.2	-0.9
C=CCc1cccc2cc(C(=O)N3CCN(c4ccccc4F)CC3)c(=O)oc12	-0.3	-0.95
CCNc1nc(NCC)nc(Oc2ccc(C(=O)OC)cc2)n1	0.13	nt
CC1(C)CC(CCC(=O)NC(=S)Nc2ccccc2Cl)C(=O)O1 (stereo not given)	-0.33	0.25
Cn1ccnc1Sc1nc(Nc2cccc(Cl)c2)nc(N2CCOCC2)n1	-0.24	nt
O=c1cnc2ccccc2n1Cc1ccc(Br)cc1	nt	-0.2
Oc1ccc(Cl)cc1C1=Nc2ccccc2N=C(c2cccc(F)c2)C1	0.07	nt
CC(C)(CN1CCCCCC1)NS(=O)(=O)c1ccc(Cl)cc1	nt	-0.9
O=C(NCC1(c2ccccc2)CCCC1)c1cc2c(s1)-c1ccccc1S(=O)(=O)C2	58	-0.1
CS(=O)(=O)CCC1NC(=O)N(CC(=O)c2ccccc2)C1=O (stereo not given)	nt	1.3
CCOc1ccc(CCOC(=O)N2CCC(C(O)(c3ccccc3)c3ccccc3)CC2)cc1	0.6	nt
C=CCn1cnc2sc(-c3ccccc3)cc2c1=O	-0.075	0.85
CSc1ccc(C=C2C(=O)c3ccccc3C2=O)cc1	-0.8	-0.35
COc1ccccc1NC(=O)CSc1nc2n[nH]c(C)c2c(=N)n1-c1ccc(C)c(Cl)c1	-0.03	0.95
CCn1nnc2c(Nc3ccc4c(c3)OCO4)ncnc21	nt	-1
C=CCN(CC=C)S(=O)(=O)c1ccc(N)cc1	-0.14	-1.1
Nc1nc(SCc2cc(=O)oc3ccc4ccccc4c23)n[nH]1	nt	-0.05
N#CC1=C(N)Oc2c(c(=O)oc3ccccc23)C1c1ccccc1OC(=O)c1cccs1 (stereo not given)	-0.01	nt
CCCCN(CC)S(=O)(=O)c1cc(C(=O)Nc2ccc(CC)cc2)ccc1F	-0.47	nt
COc1cc(N)c(Cl)cc1C(=O)NC1CCN(Cc2ccccc2)CC1	-0.25	1
COc1ccc(C(O)P(=O)(OC2CCCCC2)c2ccc(N(C)C)cc2)cc1OC (stereo not given)	nt	-0.5
N#Cc1c(Cl)cccc1Oc1ccccc1	0.44	nt
Nc1c(Cl)cc(Cl)cc1C(=O)OCC(=O)N1CCCCC1	97	-0.1
O=C(NCc1csc(-c2cccs2)n1)c1ccc(F)cc1Cl	34	-0.35
CCNc1nc(Cl)nc(Oc2ccc(=O)n(-c3ccccc3)n2)n1	-0.015	0.55
CCCC1CCCCCC1NC(C)=O (stereo not given)	0.42	1.7
CC1(C)CC(=O)C(C(C2=C(O)CC(C)(C)CC2=O)c2ccc([N+](=O)[O-])o2)=C(O)C1	-0.76	nt

# A portion of the results above, for reference:
smiles	CapD inh	AID504770
O=C(NCC1(c2ccccc2)CCCC1)c1cc2c(s1)-c1ccccc1S(=O)(=O)C2	58	-0.1
CS(=O)(=O)CCC1NC(=O)N(CC(=O)c2ccccc2)C1=O (stereo not given)	nt	1.3
CCOc1ccc(CCOC(=O)N2CCC(C(O)(c3ccccc3)c3ccccc3)CC2)cc1	0.6	nt
C=CCn1cnc2sc(-c3ccccc3)cc2c1=O	-0.075	0.85

# Some of the entries so far, with values under each structure.
# Fields: CapD inh	AID504770
- CCn1nnc2c(Nc3ccc4c(c3)OCO4)ncnc21
→ nt	-1
- C=CCN(CC=C)S(=O)(=O)c1ccc(N)cc1
→ -0.14	-1.1
- Nc1nc(SCc2cc(=O)oc3ccc4ccccc4c23)n[nH]1
→ nt	-0.05
- N#CC1=C(N)Oc2c(c(=O)oc3ccccc23)C1c1ccccc1OC(=O)c1cccs1 (stereo not given)
→ -0.01	nt
- CCCCN(CC)S(=O)(=O)c1cc(C(=O)Nc2ccc(CC)cc2)ccc1F
→ -0.47	nt

# Continued.
smiles	CapD inh	AID504770
Cc1cc(S(=O)(=O)N2CCCC2)ccc1OCC(N)=O	nt	-0.5
Cc1ccc(S(=O)(=O)c2c(O)c3ccc(C(=O)NCc4ccccc4Cl)cc3[nH]c2=O)cc1	5.6	-0.05
Cc1ccc(SC#N)c(N)n1	-0.93	-2.5*
CCCOC(=O)COc1cc(C)cc2oc(=O)c3c(c12)CCCC3	1.2	0.95
CC(C)NC(=O)C1CCN(Cc2ccccc2Cl)CC1	nt	1.2
CC1CCc2sc(C(=O)O)cc2C1 (stereo not given)	nt	2.6
Cc1ccc([N+](=O)[O-])cc1S(=O)(=O)N1CCc2ccccc2C1CN1C(=O)c2ccccc2C1=O (stereo not given)	-1.2	nt
O=C(NC1Cc2ccccc2C1)c1nnc(-c2ccccc2)o1	1	0.35
COc1ccccc1NC(=O)CSc1nc2ccccc2c(=O)n1CC1CCC(C(=O)NCc2ccco2)CC1 (stereo not given)	-0.05	nt
Cc1ccc(C(=O)NCC(=O)O)cc1S(=O)(=O)N1CCCCC1	0.085	0.75
c1ccc(-c2cc(NCc3ccco3)n3c(n2)nc2ccccc23)cc1	-0.4	-1.4
CCc1cccc(C)c1NC(=O)N1CCN(C(=O)OC(C)(C)C)CC1	0.005	nt
COc1ccc(Nc2nc(Cl)nc(NCc3cccnc3)n2)cc1	0.045	nt
O=C(CCn1c(=S)[nH]c2ccsc2c1=O)NCCc1ccc(Cl)cc1	7.7	0.45
Cn1c(N)c(C(=O)NC2CCCCC2)c2nc3ccccc3nc21	53	-0.85
COC(CNC(=O)Cn1nc(Cc2ccncc2)c2ccccc2c1=O)OC	54	0.35
Cc1ccc(CN(C(=O)NC2CCCC2)C2CCN(Cc3ccccc3)CC2)o1	-0.34	0.6
CC(C)CCN1CCC(CNS(=O)(=O)c2csc(C(N)=O)c2)CC1	0.22	-0.9
COC(=O)c1ccc(C(=O)OC)c(NC(=O)C(C(C)C)N2C(=O)c3ccccc3C2=O)c1 (stereo not given)	6.3	-0.7
CC1CCCC(NC(=S)NC(=O)C2CC2)C1C (stereo not given)	nt	-0.25
O=C(COC(=O)C1CCC1)NC12CC3CC(CC(C3)C1)C2	0.26	-0.5
Cc1ccc(Cn2ncc3ccccc32)cc1	-0.61	1.9
CCOCCOC(=O)C1=C(C)NC2=C(C(=O)CCC2)C1c1ccc(OC)c(OCc2ccccc2)c1 (stereo not given)	13	nt
CC1=C/C(=N\S(=O)(=O)c2ccccc2)C=CC1=O	-0.97	-0.9
Fc1ccc(-c2cn3cc(I)ccc3n2)cc1	0.84	0
CC(NC(=O)Cn1nnc(-c2cccc(C(F)(F)F)c2)n1)c1ccccc1 (stereo not given)	0.41	-1.4
Cc1sc(NC(=O)c2cccs2)c(C(N)=O)c1C	-1.4	2.2
CCCCN1CCc2c(c3ccccc3n2Cc2ccccc2)C1	0.68	0.3
NC(=O)N/N=C/c1ccc(-c2cccc(C(F)(F)F)c2)o1	nt	-0.65
Cc1oc(C(C)(C)C)c(CN2CCCC2)c1C(=O)O	nt	0.7
CCCCn1c(C)c(C(=O)O)c2cc(OC)ccc21	-0.35	-0.4
COc1cc2c(c(OC)c1OC)C(=O)/C(=C/N(C)C)C2	12	-0.4
CCOC(=O)C1CSC(CC(=O)Nc2ccc(OCC)cc2)C(=O)N1 (stereo not given)	nt	-0.8
CN(C)N=Nc1cccc(/C=C/C(=O)O)c1	-1.1	-0.35
Nc1c(Nc2ccccc2C(=O)O)c2ccccc2oc1=O	-0.39	1.2
O=C(Nc1ccc(-c2nc3ccccc3o2)c(O)c1)c1ccc2c(c1)OCCO2	-0.065	nt
O=C1C=C(NCc2ccc3c(c2)OCO3)CC(c2ccccc2)C1 (stereo not given)	0.38	-0.55
CC(=O)NC1C(=O)N(CCOc2ccccc2)c2ccccc21 (stereo not given)	nt	0.1
Cc1ccc2c(CC(=O)N3C(=O)c4cccc(N)c4C3=O)coc2c1	nt	-0.45
Cc1nc2c3ccccc3n(CC#N)c(=O)n2n1	0.23	-0.35
CC[n+]1ccc(C)c2cc(C(F)(F)F)ccc21	4	-0.4
c1cncc(-c2[nH]ncc2-c2nc3ccccc3o2)c1	1.2	nt
NC(=O)Cn1ccn(Cc2ccc(Cl)cc2)c(=O)c1=O	-0.68	0.1
Cc1ccc(N2C(=O)CSC23C(=O)N(CN2CCCCC2)c2ccccc23)cc1Cl (stereo not given)	0.52	nt
CC(C)(C)C(=O)NCCc1cn2ccccc2n1	nt	-1.2
CCOC(=O)c1sc2nc(CC(=O)OC)nc(N3CCC(C)CC3)c2c1C	0.98	nt
CCn1nnc2cc(C(=O)Nc3cccc(Cl)c3F)ccc21	nt	-0.75
NCCc1nc(-c2ccccc2)cs1	nt	-0.7
CN(C)c1ccc(C2CC(=O)C=C(NCCc3ccccn3)C2)cc1 (stereo not given)	-1.9	0.35
Nc1ncnc2oc(-c3ccoc3)c(-c3ccco3)c12	73	nt

# More records.
smiles	CapD inh	AID504770
Cn1ccsc1=NC(=O)c1cccnc1	nt	0.1
S=C(c1cn(Cc2ccc(Cl)cc2)c2ccccc12)N1CCCC1	-0.38	2.3
CC1SCC(=O)N(c2ccc(Br)cc2)C1=O (stereo not given)	-0.39	1.2
Cc1cc(=O)[nH]c(SC(C)C)n1	0.36	-0.55
CCOC(=O)c1ccc(NC(=O)CSc2nc3ccccc3c(=O)n2CCc2ccc(OC)c(OC)c2)cc1	-0.54	nt
COc1cc(OC)cc(C(=O)OCC(=O)N2CCC(C(N)=O)CC2)c1	nt	1.1
O=C(NCC1(c2ccccc2)CCOCC1)c1ccc(Br)cc1	-0.085	-0.9
CC(=O)Nc1ccc(C(=O)NNC(=O)C2=C(n3c(C)ccc3C)CC=C2)cc1NC(C)=O	-0.06	nt
Nc1nonc1-n1nnc(C(=O)N=Nc2c(O)[nH]c3ccc(Br)cc23)c1-c1ccccc1	nt	-0.55
CCC1CCCCN1CCCNC(=O)c1ccc(Sc2ccc(C)cc2)c(NC(C)=O)c1 (stereo not given)	-1.5	0.95
N#C/C(=C\C=C\c1ccccc1)c1nc2ccccc2[nH]1	2.5	nt
N#CCC(=O)NC1CC1	0.1	-0.15
O=C1NC2=C(C(=O)OC2)C(c2cccs2)N1 (stereo not given)	0.12	-0.75
O=C(CC(C(=O)O)c1c[nH]c2ccccc12)c1ccccc1 (stereo not given)	1.7	-0.7
CCNc1nc(NCC)n2c(SCC(=O)N(c3ccccc3)C(C)C)nnc2n1	-0.29	nt
c1ccc(-c2nc3sccn3c2COc2ncnc3ccccc23)cc1	nt	1.2
CCN(CC)c1ccc(C2Nc3ccccc3-c3cc(C)nn32)c(O)c1 (stereo not given)	68	1.5
CCOc1ccc(S(=O)(=O)N2CCCCC2C)c2ccccc12 (stereo not given)	nt	1.6
O=C(O)c1ccc(CN2CCCC2=O)cc1	nt	-0.1
Cc1cc(C)c(C)c(C(=O)COC(=O)c2ccc(-n3c(C)ccc3C)cc2)c1C	-0.14	0
CN(C)C(=O)CSc1ncnc2ccccc12	nt	1.2
N#CC1=C(N)OC2=C(CN(Cc3ccccc3)C/C2=C\c2cccnc2)C1c1cccnc1 (stereo not given)	-0.21	nt
Cc1oc2cc(O)ccc2c(=O)c1-c1ccc(Br)cc1	8.6	0.2
CCCC(=O)Nc1nnc(SCC(=O)N2CCc3ccccc32)s1	0.53	0.2
